# Ecoli rRNA inh: inhibits bacterial ribosomal RNA function over humanized ribosomes | E. coli WT GFP vs humanized-ribosome RFP mutants, fluorescence, 24 h; active compounds read low; DMSO median 0, no signal -100 | AID 720706 | GFP signal change (wild-type ribosome), % (no concentration beside the values) | 1.6% of 350,000 active;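 active = significant combined selectivity score with lowered wild-type GFP, culture density cut under 30%, mutant RFP and density less affected; inactive = any of these conditions unmet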; note: one replicate is shown; some compounds called inactive have numbers as strong as hits
# Ecoli rRNA inh OD600: further read-out of Ecoli rRNA inh, marked with its call; OD600 change, %; measured here: OD600 growth;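 optical density of the mix in the first replicate; 0 = DMSO median and -100 = no signal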
# Ecoli rRNA inh RFP: second read-out of Ecoli rRNA inh, no call of its own (marks repeat the call); RFP signal change, %; measured here: RFP humanized mutant strains;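 first replicate; 0 = DMSO median and -100 = no signal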
# Starred values were filed as active, the others as inactive; & = joins results of further samples. Only part of the results is shown, so the mix of outcomes need not match the whole.
SMILES,Ecoli rRNA inh,Ecoli rRNA inh OD600,Ecoli rRNA inh RFP
C[C@@H]1CCCCO[C@@H](CN(C)Cc2ccc3c(c2)OCO3)[C@@H](C)CN([C@@H](C)CO)C(=O)c2cc(NS(=O)(=O)c3cn(C)cn3)ccc2O1,4.7,12.9,-2.2
C[C@H]1CN([C@@H](C)CO)C(=O)CCCn2cc(nn2)CO[C@H]1CN(C)C(=O)Nc1ccc(C(F)(F)F)cc1,-8.0,-0.4,7.6
COc1ccc2c3c(n(C)c2c1)[C@@H](CO)N(C(=O)Nc1ccc(F)cc1)CC31CN(Cc2cccc(F)c2)C1,-10.8,-46.2,32.5
CCCN1C[C@@H](C)[C@@H](OC)CN(C)C(=O)c2cc(NC(=O)Nc3cccc(OC)c3)ccc2OC[C@@H]1C,0.1,0.0,6.3
COc1ccc2c3c(n(C)c2c1)[C@H](CO)N(C(C)=O)CC31CCN(C(=O)Nc2ccccc2F)CC1,-1.3,-3.8,-3.0
CN(C)C(=O)C[C@H]1C[C@@H]2c3cc(NS(=O)(=O)c4ccc(F)cc4)ccc3O[C@@H]2[C@@H](CO)O1,-3.6,-8.5,-1.8
C[C@@H]1COCn2nncc2CC[C@@H](Cc2ccc(Cl)cc2)C(=O)N1,4.5,6.9,-4.7
CC(=O)N1C[C@@H]2C(c3ccc(Br)cc3)[C@H](C1)N2CC(F)(F)F (some centres not stated),1.5&-3.0,-1.3&-13.5,-2.2&2.1
O=C(C[C@H]1CC[C@H]2[C@@H](COC[C@H](O)CN2C(=O)c2cccnc2)O1)NCC1CC1,4.8,10.3,17.6
COC(=O)C1=C(C)N(Cc2ccc(C(F)(F)F)cc2)C(=NCc2ccc(C(F)(F)F)cc2)NC1c1ccccc1 (configuration not stated),-46.8,-75.0,-15.8
Cc1ccccc1C(=O)N[C@@H](Cc1cccnc1)C(=O)N1CCC[C@H]1C(=O)NC1CCCC1,11.7,3.0,4.8
COc1ccc2c3c([nH]c2c1)[C@@H](CO)N(Cc1ccncc1)CC31CCN(C(=O)CN(C)C)CC1,3.0,13.6,-2.5
C[C@H](CO)N1C[C@H](C)[C@H](CN(C)Cc2cccc(F)c2)Oc2ncc(-c3cccc(F)c3)cc2C1=O,-1.1,-4.5,4.2
C[C@@H]1CN([C@@H](C)CO)C(=O)c2cc(NC(=O)Nc3ccc(C(F)(F)F)cc3)ccc2O[C@@H](C)CCCCO[C@@H]1CN(C)C(=O)CCCN(C)C,-1.1,-8.7,4.5
CO[C@H]1CN(C)C(=O)c2cc(NC(=O)Nc3cc(Cl)cc(Cl)c3)ccc2OC[C@@H](C)NC[C@H]1C,-1.8&-4.3&-59.5,-0.6&-30.9&-77.7,2.2&11.9&-15.1
COc1ccc2c3c([nH]c2c1)[C@@H](CO)N(C(=O)CN(C)C)CC31CN(Cc2ccccc2Cl)C1,-25.2,-59.1,9.1
C/C=C/c1ccc([C@@H]2[C@@H](CNC(C)=O)N(C(=O)Cc3cccnc3)[C@H]2CO)cc1,-0.4,10.1,-0.2
C[C@@H]1CN([C@H](C)CO)C(=O)c2cc(NS(=O)(=O)c3cccs3)ccc2O[C@@H](C)CCCCO[C@@H]1CN(C)Cc1ccc2c(c1)OCO2,-5.2,-16.6,5.1
C[C@H](CO)N1C[C@H](C)[C@@H](CN(C)Cc2ccc(C(=O)O)cc2)OCCCC[C@H](C)Oc2ccc(N(C)C)cc2C1=O,1.0,5.3,-3.3
C[C@@H]1CCCCO[C@H](CN(C)C(=O)Nc2ccc3c(c2)OCO3)[C@@H](C)CN([C@@H](C)CO)C(=O)c2cc(NC(=O)Cc3ccccc3)ccc2O1,-2.1,5.0,-2.8

# Some of these compounds in order of their number in Ecoli rRNA inh RFP, highest first.
structure,Ecoli rRNA inh RFP
C[C@H](CO)N1C[C@H](C)[C@H](CN(C)Cc2cccc(F)c2)Oc2ncc(-c3cccc(F)c3)cc2C1=O,4.2
C/C=C/c1ccc([C@@H]2[C@@H](CNC(C)=O)N(C(=O)Cc3cccnc3)[C@H]2CO)cc1,-0.2
C[C@@H]1CCCCO[C@@H](CN(C)Cc2ccc3c(c2)OCO3)[C@@H](C)CN([C@@H](C)CO)C(=O)c2cc(NS(=O)(=O)c3cn(C)cn3)ccc2O1,-2.2

# Further results
SMILES,Ecoli rRNA inh,Ecoli rRNA inh OD600,Ecoli rRNA inh RFP
O=C(Nc1nccs1)[C@@H]1[C@@H](CO)[C@@H]2Cn3c(ccc(-c4ccncc4)c3=O)[C@@H]2N1CC1CCCC1,-7.1,-7.7,3.5
COc1cccc(C(=O)Nc2ccc3c(c2)OC[C@H](C)N(CC2CC2)C[C@H](C)[C@@H](OC)CN(C)C3=O)c1,-2.6,-4.5,-0.6
C[C@@H]1CN([C@H](C)CO)S(=O)(=O)c2ccc(-c3cncnc3)cc2O[C@@H]1CN(C)C(=O)C1CC1,2.3,7.6,-1.8
N#Cc1ccc(-c2ccc(C3[C@@H]4CN(C(=O)c5ccncc5)C[C@H]3N4)cc2)cc1 (some centres not stated),-0.1&-1.4,6.9&0.9,0.3&-5.7
COc1ccc(CN2C[C@@H](O)COC[C@H]3O[C@@H](CC(=O)NCCN4CCCC4)CC[C@@H]32)cc1,7.7,9.6,1.3
C[C@H]1CN([C@@H](C)CO)S(=O)(=O)c2ccc(C#CCN(C)C)cc2O[C@H]1CN(C)S(=O)(=O)c1cccc(F)c1,-5.1,-7.4,-1.2
CO[C@H]1CN(C)C(=O)c2cc(NC(=O)NC3CCCC3)ccc2OC[C@@H](C)NC[C@H]1C,-0.4,1.2,1.2
COC(=O)c1ccc(CN2C(=O)[C@]3(OCCC=C[C@H]3C)c3cc(OC)ccc32)cc1,-6.6,1.7,3.2
COc1cccc(-c2ccccc2[C@H]2[C@@H](CO)N(C(=O)Nc3ccc(F)cc3)[C@H]2C#N)c1,-7.2,-25.0,-4.2
CC(C)NC(=O)N(C)C[C@@H]1Oc2c(NC(=O)Nc3ccc4c(c3)OCO4)cccc2C(=O)N([C@H](C)CO)C[C@H]1C,3.1,7.2,1.1
O=C(Cc1ccncc1)N1CC[C@@H]2[C@H]1c1cc(Br)ccc1N[C@@H]2CO,-1.5,2.5,-0.3
Cc1cccc(-c2ccc([C@@H]3[C@H](CO)N4C(=O)CN(C(=O)c5cnccn5)C[C@@H]34)cc2)c1,0.6,-8.4,2.5
C[C@@H]1CN([C@@H](C)CO)C(=O)c2cc(NS(=O)(=O)c3cn(C)cn3)ccc2O[C@@H](C)CCCCO[C@H]1CN(C)C(=O)Nc1cccc2ccccc12,4.1,-5.6,2.5
CNC[C@@H]1Oc2ccc(NC(=O)C3CC3)cc2CC(=O)N([C@@H](C)CO)C[C@@H]1C,2.5,0.2,-1.7
COCC(=O)N1CC[C@@H]2[C@@H](CO)N(C)c3ccc(-c4ccc(F)cc4)cc3[C@@H]21,-0.6,-4.3,1.7
CC(C)NC(=O)N(C)C[C@H]1Oc2ccc(NC(=O)Cn3cnnn3)cc2C(=O)N([C@@H](C)CO)C[C@@H]1C,7.0,9.8,-0.2
CC(C)C(=O)Nc1ccc2c(c1)C(=O)N(C)[C@H]1CC[C@@H](CC(=O)NCc3cccc(F)c3)O[C@@H]1CO2,-0.8,4.0,-3.2
CCCN1C[C@@H](C)[C@@H](OC)CN(C)C(=O)c2cc(NS(C)(=O)=O)ccc2OC[C@H]1C,-0.2,1.2,-0.1
C[C@@H]1CCCCO[C@H](CN(C)Cc2ccc3c(c2)OCO3)[C@@H](C)CN([C@H](C)CO)C(=O)c2cc(NS(=O)(=O)c3cn(C)cn3)ccc2O1,-2.5,3.7,-0.2
O=C(C[C@H]1C=C[C@@H](NC(=O)Nc2ccc3c(c2)OCO3)[C@@H](CO)O1)NCc1ccccc1,0.5,4.6,-0.6
COc1ccc(NC(=O)N(C)C[C@@H]2Oc3c(NS(=O)(=O)c4ccccc4)cccc3C(=O)N([C@@H](C)CO)C[C@@H]2C)cc1,-0.5,4.0,-0.6
C[C@@H]1CN([C@@H](C)CO)C(=O)c2cc(NS(C)(=O)=O)ccc2O[C@@H]1CN(C)S(=O)(=O)c1ccc(Cl)cc1,-5.4,-11.4,1.3
CO[C@@H]1CN(C)C(=O)c2ccc(NS(C)(=O)=O)cc2OC[C@H](C)N(Cc2ccccn2)C[C@@H]1C,4.1,3.5,-0.6
C[C@H]1CCCCO[C@H](CN(C)S(=O)(=O)c2cn(C)cn2)[C@@H](C)CN([C@@H](C)CO)C(=O)c2cc(N(C)C)ccc2O1,1.2,1.3,-0.5
CCCNC(=O)Nc1ccc2c(c1)OC[C@@H](C)N(C(=O)C1CCCC1)C[C@@H](C)[C@H](OC)CN(C)C2=O,0.9,7.0,-2.3
Cc1noc(C)c1S(=O)(=O)N(C)C[C@@H]1OCCCC[C@@H](C)Oc2ccc(NC(=O)CCC(F)(F)F)cc2C(=O)N([C@@H](C)CO)C[C@@H]1C,0.3,11.1,2.3
O=C(C[C@H]1CC[C@H]2[C@@H](COC[C@H](O)CN2Cc2nccs2)O1)N1CCC(Cc2ccccc2)CC1,1.7,-22.6,-1.2
C[C@@H]1CN([C@@H](C)CO)C(=O)Cc2cc(NS(=O)(=O)c3ccc(F)cc3)ccc2O[C@H]1CN(C)S(=O)(=O)c1ccc(Cl)cc1,-7.2,-15.6,-0.3
CCCNC(=O)N1CC2(C1)CN(C(=O)CN1CCOCC1)[C@H](CO)c1[nH]c3cc(OC)ccc3c12,6.7,10.3,0.5
O=C(NS(=O)(=O)c1cccs1)[C@H]1O[C@@H](n2ccc(=O)[nH]c2=O)[C@H](O)[C@@H]1O,5.4,19.0,-4.4
C[C@H](CO)N1C[C@H](C)[C@@H](CN(C)Cc2cncnc2)Oc2cc(C#C[C@@H](C)O)ccc2S1(=O)=O,4.4,-1.9,-4.7
CCc1ccc(C2CC3C(CN2S(=O)(=O)c2ccc(C)cc2)C(=O)CC(c2ccc(CC)cc2)N3S(=O)(=O)c2ccc(C)cc2)cc1 (configuration not stated),7.6,9.0,0.2
Cc1ccc(S(=O)(=O)Nc2ccc3c(c2)CC(=O)N([C@@H](C)CO)C[C@H](C)[C@H](CN(C)Cc2ccc(C(=O)O)cc2)O3)cc1,2.0,2.4,0.0
Cc1cc(Oc2cccnc2)ccc1NC(=O)Cc1c[nH]c2ccccc12,-0.3,-4.0,-1.2
COCC(=O)Nc1ccc2c(c1)C(=O)N(C)[C@H]1CC[C@@H](CC(=O)NCc3ccc(OC)cc3)O[C@@H]1CO2,1.2,6.1,-0.8
C[C@@H]1CCCCO[C@@H](CN(C)C(=O)c2ccncc2)[C@@H](C)CN([C@@H](C)CO)C(=O)c2cc(NC(=O)CCC(F)(F)F)ccc2O1,2.8,10.3,0.8
CN1c2ccc(C3=CCCCC3)cc2[C@@H]2[C@@H](CCN2S(=O)(=O)c2ccccc2)[C@H]1CO,-3.5,4.2,3.8
COc1ccc2c3c([nH]c2c1)[C@@H](CO)N(C(=O)c1ccccn1)CC31CN(C(=O)C2CCCCC2)C1,-1.1,8.5,-2.3
C[C@H]1CC=CC[C@H](c2ccc(F)cc2)NC(=O)[C@H](C)N(C)C(=O)c2ccccc2O1 (mixture of isomers),0.3,9.8,-0.5
COc1ccc2c3c([nH]c2c1)[C@H](CO)N(Cc1ccccc1)CC31CCN(C(=O)Cc2ccccc2)CC1,-2.4,-20.5,8.8
Cc1ccc(S(=O)(=O)N(C)C[C@H]2Oc3ccc(NS(=O)(=O)c4ccc(F)cc4)cc3C(=O)N([C@H](C)CO)C[C@@H]2C)cc1,-3.8,-4.3,-2.1
COc1ccc(-c2ccc3c(c2)O[C@@H](CN(C)CC2CC2)[C@@H](C)CN([C@H](C)CO)S3(=O)=O)cc1,-0.5,3.4,2.5
C[C@H](CO)N1C[C@H](C)[C@H](CN(C)S(C)(=O)=O)OCCCC[C@H](C)Oc2ccc(NC(=O)Nc3ccc(F)cc3)cc2C1=O,-0.4,-2.9,1.1
CCCC(=O)Nc1ccc2c(c1)C(=O)N(C)C[C@@H](OC)[C@@H](C)CN(Cc1ccccc1)[C@@H](C)CO2,0.7,-0.6,-1.9
CN1CCN(C(=O)C[C@H]2CC[C@H]3[C@@H](COC[C@H](O)CN3C(=O)c3ccccc3F)O2)CC1,3.4,6.4,4.0
C[C@@H]1CN([C@H](C)CO)C(=O)c2cc(NS(=O)(=O)c3ccc(F)cc3)ccc2O[C@H]1CN(C)S(C)(=O)=O,3.6,5.8,0.6
CCCN1CCCCC(NC(C)=O)C1=O (configuration not stated),23.5,19.4,-1.7
COc1cccc(C#Cc2ccc3c(c2)[C@H]2[C@H](CCN2C(=O)c2ccccc2F)[C@H](CO)N3)c1,-6.5,5.0,-0.3
CCC(=O)N1C[C@@H](O)COC[C@H]2O[C@H](CC(=O)NCc3cc(F)cc(F)c3)CC[C@@H]21,1.5,2.3,8.7
O=C(C[C@H]1CC[C@@H]2[C@H](COC[C@@H](O)CN2C(=O)c2cccnc2)O1)Nc1ccc(-c2ccccc2)cc1,-2.2,-5.0,12.8
CNC(=O)C[C@@H]1CC[C@H]2[C@H](COc3ccc(NC(=O)NC(C)C)cc3C(=O)N2C)O1,1.0,1.2,-1.9
COc1ccccc1NC(=O)N1C[C@@H](O)COC[C@@H]2O[C@H](CC(=O)N3CCC(Cc4ccccc4)CC3)CC[C@H]21,-2.6,-14.0,-0.1
C=CCN1C(=O)c2n[nH]c(C(C)C)c2C1c1ccc(C)cc1 (configuration not stated),-16.4,-12.8,4.9

# 3 structures from above, ordered by formula weight, low to high.
SMILES,Ecoli rRNA inh,Ecoli rRNA inh OD600,Ecoli rRNA inh RFP
COc1ccc2c3c([nH]c2c1)[C@@H](CO)N(Cc1ccncc1)CC31CCN(C(=O)CN(C)C)CC1,3.0,13.6,-2.5
CCCNC(=O)N1CC2(C1)CN(C(=O)CN1CCOCC1)[C@H](CO)c1[nH]c3cc(OC)ccc3c12,6.7,10.3,0.5
CCCN1C[C@@H](C)[C@@H](OC)CN(C)C(=O)c2cc(NC(=O)Nc3cccc(OC)c3)ccc2OC[C@@H]1C,0.1,0.0,6.3

# Screening results: PubChem, Broad Institute
